HIV TAR-Tat: HIV-1 TAR-Tat binding disruption; AID 1259389; z-score (no concentration beside the values); HIV-1 TAR RNA, Tat peptide displacement FRET; stronger effect = higher value; 0.6% of 100,000 active;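 note: score is relative to mean and SD of negative controls; some compounds called inactive have numbers as strong as hits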
CDC25B-CDK2 inh: human CDC25B-CDK2/CyclinA binding inhibition; 0.72% of 94,000 active; P30305+P24941; AID 1259370; HTRF CDC25B-CDK2/CyclinA binding, anti-His/anti-Flag; stronger effect = higher value; z-score (concentration not given with the values);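 note: score is relative to mean and SD of negative controls; strong numbers were not always called active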
An asterisk follows results filed as active; nt = not tested or not shown.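 Rule for the calls: active = z-score from 3 up in half or more of its runs; inactive = the rest.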

No.	Structure	HIV TAR-Tat	CDC25B-CDK2 inh
1	Cc1cn2c(=O)c(S(=O)(=O)Nc3ccc(F)cc3Cl)c(C)nc2s1	-0.53	nt
2	CCN1CCCC1CNC(=O)c1cc(Cc2c(C)n[nH]c2C)c(N2CCOCC2)s1 (centres undefined)	-0.48	nt
3	N#Cc1c(SCC(=O)Nc2ccc(Cl)cc2)nc2c(c1-c1ccco1)CCCC2	nt	-0.5
4	COc1cc(OC)cc(-c2cc(N)n(S(=O)(=O)Cc3ccccc3)n2)c1	2.8	-1.4
5	Cc1ccc(NS(=O)(=O)c2cc(F)c(Br)cc2F)cc1	nt	-0.26
6	COCCn1c(Cc2cccn2C)nnc1SCC(=O)Nc1nccs1	1.3	-1.2
7	CN1CCN(C(=O)CCc2nnc3ccc(N4CCCCC4)nn23)CC1	0.08	nt
8	CC1(C)Oc2ccc3ccc(=O)oc3c2CC1O (centres undefined)	1.3	nt
9	CC(C)Cc1nn2c(=O)cc(CSCC(=O)Nc3ccc(Cl)cc3)nc2s1	-0.43	nt
10	CCOC(=O)N1CCN(c2c(NC(C)(C)C)c(=O)c2=O)CC1	0.69	0.59
11	O=C(NCC1CCCO1)c1ccc2c(c1)N(Cc1ccccc1)C(=O)c1ccccc1S2=O (centres undefined)	-0.21	-0.96
12	Cc1c(NC(=O)CCc2nc(-c3cccs3)no2)c(=O)n(-c2ccccc2)n1C	0.38	-0.67
13	Cc1ccc(-c2nc(CNC(=O)Nc3cc(C)ccc3C)c(C)o2)cc1	-1.5	nt
14	O=C1COc2cc(-c3c(N4CCCC4)c(=O)c3=O)ccc2N1	11*	nt
15	O=C(O)CCSc1nnc(-c2ccc3ccccc3c2)o1	1.8	-0.81
16	O=C(O)CCCn1ccc2cc(S(=O)(=O)N3CCCC3)ccc21	-1.4	-0.92
17	COc1ccc(OC)c(C2C(=O)N(C3CCC(C)CC3)CC(=O)N2CCc2ccccc2Cl)c1 (centres undefined)	nt	-0.98
18	Cc1ccccc1OCc1nc(-c2ccc(Cl)cc2)no1	nt	-3.2
19	O=C(NCc1ccc2c(c1)OCO2)C(=O)c1cn(CC(=O)N2CCOCC2)c2ccccc12	1.9	nt
20	CCN(CC)S(=O)(=O)N1CCC(C(=O)NCc2ccc(OC)cc2)CC1	nt	-0.11
21	CC1Cc2cc(S(=O)(=O)CCC(=O)N3CCN(c4ccccc4)CC3)ccc2N1C(=O)C1CC1 (centres undefined)	-0.22	nt
22	CCCCN(CCCC)Cc1c(C)[nH]c2ccccc2c1=O	-0.6	-0.85
23	COC(=O)c1ccccc1NC(=O)NC1(C(F)(F)F)Oc2ccccc2O1	nt	1.4
24	Cc1nc(-c2csc(S(=O)(=O)N3CCN(c4ccccc4F)CC3)c2)no1	0.22	nt
25	CCOCCCNC(=O)C1CCN(c2nnc(N3CCCC3=O)s2)CC1	-1.4	-1.3
26	CN1CCc2c(sc3nc(=S)[nH]c(Nc4ccccc4)c23)C1	nt	-1.1
27	Cc1cc(NC(=O)CSc2nc3c(cc2C#N)CCCC3)no1	nt	-16
28	CC(C)Cn1c(=O)oc2ccccc21	2.3	4.8
29	CCN1CCN(C(=O)Nc2cn(C)c(=O)c3ccccc23)CC1	-0.33	nt
30	Cc1cccc2[nH]c(SCc3ccccc3F)nc12	1.8	-2.7
31	Cc1nc2ncnn2c(Nc2ccc3c(c2)OCO3)c1C	1	nt
32	CCCN1CCN(c2ncc3c(n2)CCN(Cc2ccccc2F)C3)CC1	1.8	nt
33	COc1ccc(C2=Nc3ccc(Cl)cc3NC(c3ccncc3)=N2)cc1	0.55	-1.8
34	COc1cccc(-c2noc(N3CCN(c4ncccn4)CC3)n2)c1OC	0.75	nt
35	COc1cc(OC)c(NC(=O)c2nn(C)c3c2CSc2ccccc2-3)cc1Cl	1.1	-0.89
36	CCN(CC)c1ncnc2c1nnn2Cc1ccccc1	nt	-1.2
37	O=C1C2=C(Nc3ccccc3SC2c2ccsc2)c2ccccc21 (centres undefined)	-2.9	1.5
38	COC(=O)C1=C(C)NC2=C(C(=O)CCC2)C1c1cc(OC)ccc1OC (centres undefined)	0.65	-0.66
39	CC1CC(=O)Nc2cc(S(=O)(=O)NCc3ccc(Br)cc3)ccc2S1 (centres undefined)	0.12	nt
40	CCC(C(=O)O)n1sc2ccccc2c1=O (centres undefined)	1.6	-0.74
41	O=C1CC(c2cccc(O)c2)c2c(nc(SCc3cccc(Cl)c3)[nH]c2=O)N1 (centres undefined)	2.5	-1.5
42	Cc1nn(-c2ccccc2)c(-n2cccc2)c1C#N	-1.3	-1.3
43	Cc1cc(SCC(=O)Nc2c(C)n(C)n(-c3ccccc3)c2=O)ncn1	-0.3	-0.89
44	O=c1cc(NCc2ccccc2)n(-c2ccccc2)c(=O)n1-c1ccccc1	nt	-1.6
45	CN(c1ccc(F)cc1)S(=O)(=O)N1CCCC(C(=O)N2CCN(c3ncccn3)CC2)C1 (centres undefined)	4.8	nt
46	CCN1C(=O)C2(c3ccccc31)c1c(oc3ccc(F)cc3c1=O)C(=O)N2CCCOC (centres undefined)	0.21	-2.2
47	O=[N+]([O-])c1cccnc1ON=C(c1cccs1)c1cccs1	nt	1.2
48	CSc1ccccc1NC(=O)c1cc2c(=O)n3cccc(C)c3nc2n1C	-0.54	nt
49	O=S(=O)(c1ccc2[nH]c3c(c2c1)CCCCCC3)N1CCOCC1	0.92	nt
50	O=[N+]([O-])c1cccnc1NCc1cccs1	4.1	-3.1
51	COc1ccc(C2SCCN2S(=O)(=O)c2cccc(C)c2)cc1OC (centres undefined)	1	0.1
52	O=C(OCc1ccc(Br)cc1)C1CCCCN1S(=O)(=O)c1ccc(F)cc1 (centres undefined)	0.73	-1.4
53	O=C(CSc1ccccn1)c1cc(Cl)sc1Cl	nt	-0.28
54	COC(=O)C1Cc2ccccc2CN1S(=O)(=O)c1ccc(F)cc1 (centres undefined)	nt	-1.6
55	CCn1cc(C(=O)N2CCc3ccccc3C2)c(=O)c2cc(S(=O)(=O)N3CCC(C)CC3)ccc21	0.58	15*
56	O=S1(=O)N=C(SCc2ccc(Br)cc2)Nc2ccccc21	1.6	nt
57	O=C1C2C(c3ccccc3)OC3(C(=O)c4ccccc4C3=O)C2C(=O)N1C1CCCCC1 (centres undefined)	0.51	1.3
58	CCN(CC)C(=O)c1sc(NC(=O)c2nc3ncccn3n2)c(C(=O)OC)c1C	-2.1	-1.7
59	CCN(CC)C(=O)Cn1cc(SCC(=O)NC(C)C)c2ccccc21	0.18	nt
60	CCOC(=O)C(CCC(=O)O)(CCC(=O)O)C(=O)OCC	nt	-0.92

(continued)
No.	Structure	HIV TAR-Tat	CDC25B-CDK2 inh
61	COc1ccc(-n2nc(C(=O)Nc3cnc4ccccc4c3)c3c4ccccc4n(C)c3c2=O)cc1	0.63	0.83
62	COCCNc1cc(N2CCOCC2)c2noc3c2c1C(=O)c1ccccc1-3	-0.54	-1.1
63	O=S(=O)(Nc1ccc2c(c1)N(S(=O)(=O)c1ccccc1)CCC2)c1cccs1	1.9	nt
64	O=c1[nH]c2ccccc2n1CCCN1CCCCC1	0.5	-1.7
65	CCCNC(=O)C1CCN(c2nn3c(=O)cc(C)nc3s2)CC1	0.54	-0.64
66	O=C(C1CCCN(S(=O)(=O)N2CCCCC2)C1)N1CCN(c2ccc(F)cc2)CC1 (centres undefined)	4.6	nt
67	O=C(CSc1nc2ccccc2nc1N1CCOCC1)NC1CCCC1	1.8	-2.2
68	Cc1nc2scc(C)n2c(=O)c1S(=O)(=O)NCc1ccc(F)cc1	1.7	-0.72
69	Cc1noc(C)c1S(=O)(=O)N(C)CC(=O)NC1CCCCC1	2.5	nt
70	Cn1c(C(=O)Nc2cccc(F)c2)cc2c(=O)n3ccccc3nc21	0.47	nt
71	CC1CCCN(c2csc3ccc(Br)cc3c2=O)C1 (centres undefined)	0.71	nt
72	CCCCCn1nnc2c(=O)oc3ccccc3c21	1.4	0.1
73	Nc1cccc(-c2cnc3ccccc3n2)c1	0.06	-3
74	Cc1ccc(C)n1-c1ncccc1Oc1cnn(Cc2ccccc2)c(=O)c1Cl	nt	-2.2
75	CN1C(C(=O)c2ccccc2)=C(NC(=O)CN2C(=O)CCC2=O)c2ccccc2S1(=O)=O	1.1	-2.6
76	CC1=C(c2ccccc2)S(=O)(=O)NC1=NCCCN1CCN(Cc2ccccc2)CC1	0.06	0.11
77	COc1ccc(N2CCN(C(CNS(=O)(=O)c3ccc4c(c3)OCCO4)c3ccco3)CC2)cc1 (centres undefined)	2.1	nt
78	Cc1oc(-c2ccc(C(=O)O)cc2)nc1CN1CCN(c2ncccn2)CC1	1.2	nt
79	CCOC(=O)N1CCc2c(sc3c2c(=O)n(-c2ccc(F)cc2)c(=O)n3C)C1	0.63	-1.8
80	O=c1ccc(-c2ccc(S(=O)(=O)NCC3CCCO3)s2)n[nH]1 (centres undefined)	-0.11	nt
81	Cc1ccc(C(=O)OC2=CN(C(C)C)S(=O)(=O)c3ccccc32)cc1	-1.2	-1.5
82	O=C(Cc1scnc1-c1cccs1)NCc1ccc2c(c1)OCO2	-1.7	-1.9
83	O=C(N/C=C/c1ccsc1)Nc1ccccc1C(F)(F)F	nt	-1
84	CCS(=O)(=O)c1nc(S(=O)(=O)c2ccc(Cl)cc2)c(NCc2ccco2)s1	13	-0.01
85	COc1cc(Cl)c(C)cc1NS(=O)(=O)c1c(C)nc2scc(C)n2c1=O	2.8	-1.7
86	O=C(CCC1=NS(=O)(=O)c2ccccc2N1)NCCc1c[nH]c2ccccc12	-0.19	nt
87	CCC(C)NC(=O)CCCn1nc(C)n2c(cc3sccc32)c1=O (centres undefined)	-1.1	-0.9
88	Cc1ccc2nc(Nc3ccc(F)cc3C)c3nnnn3c2c1	-0.51	nt
89	O=C(CCN1C(=O)c2ccccc2C1=O)NCCC1=CCCCC1	nt	-1.6
90	COc1ccc(-c2nc(SCc3cc(=O)c4cc(Cl)ccc4[nH]3)n[nH]2)cc1	-1.4	nt
91	CCn1cnc2c(=O)oc3ccc(S(=O)(=O)Nc4ccc(OC)cc4)cc3c21	1.8	-1.5
92	O=C(Cn1c(=O)oc2cc(S(=O)(=O)NC3CCCC3)ccc21)NC1CCCc2ccccc21 (centres undefined)	nt	-0.98
93	CCC(C)NC(=O)c1c(C)oc2ncnc(N3CCOCC3)c12 (centres undefined)	1.1	nt
94	COc1cccc(-n2c(N)c(C(=O)Nc3ccccc3OC)sc2=S)c1	0.69	nt
95	CCCCCc1c(C)[nH]c2[nH]n(-c3ccccc3)c(=O)c2c1=O	-6	-1.8
96	COCCNc1c2c(c(C#N)c3nc4ccccc4n13)CCCC2	0.11	0.38
97	Nc1c(-c2nc(-c3ccc(Cl)cc3)no2)nnn1-c1ccc(Cl)cc1	-0.58	nt
98	OC(c1ccccc1)c1cccs1 (centres undefined)	0.96	-1.8
99	CC1(C)CC(=O)C2=C(C1)Nc1ncnn1C2c1ccccn1 (centres undefined)	nt	0.01
100	COc1cc(Cl)c(C)cc1N1CC(O)=C(c2nc3ccccc3[nH]2)C1=N	2.1	-1.6

An excerpt of these results, with two lines to a compound:
Values in the order: HIV TAR-Tat, CDC25B-CDK2 inh
[15] O=C(O)CCSc1nnc(-c2ccc3ccccc3c2)o1
 : 1.8, -0.81
[16] O=C(O)CCCn1ccc2cc(S(=O)(=O)N3CCCC3)ccc21
 : -1.4, -0.92
[17] COc1ccc(OC)c(C2C(=O)N(C3CCC(C)CC3)CC(=O)N2CCc2ccccc2Cl)c1 (centres undefined)
 : nt, -0.98
[18] Cc1ccccc1OCc1nc(-c2ccc(Cl)cc2)no1
 : nt, -3.2
[19] O=C(NCc1ccc2c(c1)OCO2)C(=O)c1cn(CC(=O)N2CCOCC2)c2ccccc12
 : 1.9, nt
[20] CCN(CC)S(=O)(=O)N1CCC(C(=O)NCc2ccc(OC)cc2)CC1
 : nt, -0.11

(next part)
No.	Structure	HIV TAR-Tat	CDC25B-CDK2 inh
101	COc1cccc(OC)c1-c1cc(C(=O)NC2(C(=O)O)C3CC4CC(C3)CC2C4)nn1-c1ccc(C(=O)N(C)CCCN(C)C)cc1C(C)C (centres undefined)	nt	2.9
102	Cc1cc(NC(=O)c2cc(-c3ccco3)on2)n(-c2ccccc2)n1	nt	-0.2
103	O=C1CC2(CCCC2)CC(=O)N1c1cc(Cl)cc(Cl)c1	nt	-1.6
104	COc1ccc2nc(-n3nc(C)c4c3NC(=O)CC4c3cc(Br)cs3)sc2c1 (centres undefined)	0.78	nt
105	O=C(NC1CC1)c1ccc2cccc(O)c2n1	1.7	nt
106	O=C(NNC(=O)c1ccc(C#Cc2ccccc2)o1)Nc1ccc(OC(F)(F)F)cc1	nt	-1.6
107	Clc1ccc2c(c1)C1CC(c3cccnc3)=NN1C1(CCCCC1)O2 (centres undefined)	nt	-2.5
108	CCOc1ccc(/C=C/c2nc(C#N)c(NC3CCCCC3)o2)cc1	-0.44	-1.6
109	CC(C)C(=O)Nc1ccc([N+](=O)[O-])c(C(F)(F)F)c1	-1.1	-1.1
110	O=C(CCc1ccc(O)cc1)c1c(O)cc(O)cc1O	6	-1.1
111	c1ccc(CN(Cc2ccccc2)c2ncnc3sc(-c4ccccc4)cc23)cc1	nt	-1.3
112	CCOc1ccc(-c2noc(CSc3nc4cc5c(cc4c(=O)n3CC)OCO5)n2)cc1	0.21	nt
113	Cc1occc1-c1nnc(SCC(=O)N(C)c2ccc(F)cc2)o1	2.2	0.4
114	CN1c2cc(Cl)ccc2-c2nc(SCC(=O)Nc3ccccc3)ncc2S1(=O)=O	0.15	nt
115	CC(C)C12CN3CC(C(C)C)(CN(C1)C3c1ccc(O)cc1O)C2=O (centres undefined)	2	-1.1
116	CCN1CCN(C2=NS(=O)(=O)C(c3cccc(Br)c3)=C2C)CC1	0.47	-1.3
117	N[C@@H]1CONC1=O	2.1	-2.3
118	Cc1cc(C)c2c(=O)cc(C(=O)N(Cc3ccc(N(C)C)cc3)C3CCS(=O)(=O)C3)oc2c1 (centres undefined)	1.2	-0.15
119	CN1CCN(C(=O)c2cc(S(=O)(=O)N3CCc4ccccc43)cn2C)CC1	1.8	-0.69
